From PubChem BioAssay
RGS16-Gao HTS: regulators of human RGS16-Galphao interaction. 0.38% of 220,000 active. AID 1441. binding response (% of control), % at 10 µM. O15492+P09471. bead-based flow cytometry RGS16-Galphao binding, fluorescence; actives lie on both sides;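 active means below 25% or above 175%, edge rows of some plates excepted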;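 further: Galphao activated by GDP with aluminum fluoride before binding; 100% = wells without compound and 0% = beads without RGS; some results beyond the cut were filed as inactive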
PKD1 kinase inh: inhibitors of human PKD1 kinase. inhibition, %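 (about 10 µM by stock and volumes)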. 0.056% of 200,000 active. PKD1 kinase fluorescence polarization assay. AID 797;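 active means inhibition of 50% or more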;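 further: controls were vehicle for no effect and a reference inhibitor for full effect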
Target sequence (Q15139 whole entry, looked up): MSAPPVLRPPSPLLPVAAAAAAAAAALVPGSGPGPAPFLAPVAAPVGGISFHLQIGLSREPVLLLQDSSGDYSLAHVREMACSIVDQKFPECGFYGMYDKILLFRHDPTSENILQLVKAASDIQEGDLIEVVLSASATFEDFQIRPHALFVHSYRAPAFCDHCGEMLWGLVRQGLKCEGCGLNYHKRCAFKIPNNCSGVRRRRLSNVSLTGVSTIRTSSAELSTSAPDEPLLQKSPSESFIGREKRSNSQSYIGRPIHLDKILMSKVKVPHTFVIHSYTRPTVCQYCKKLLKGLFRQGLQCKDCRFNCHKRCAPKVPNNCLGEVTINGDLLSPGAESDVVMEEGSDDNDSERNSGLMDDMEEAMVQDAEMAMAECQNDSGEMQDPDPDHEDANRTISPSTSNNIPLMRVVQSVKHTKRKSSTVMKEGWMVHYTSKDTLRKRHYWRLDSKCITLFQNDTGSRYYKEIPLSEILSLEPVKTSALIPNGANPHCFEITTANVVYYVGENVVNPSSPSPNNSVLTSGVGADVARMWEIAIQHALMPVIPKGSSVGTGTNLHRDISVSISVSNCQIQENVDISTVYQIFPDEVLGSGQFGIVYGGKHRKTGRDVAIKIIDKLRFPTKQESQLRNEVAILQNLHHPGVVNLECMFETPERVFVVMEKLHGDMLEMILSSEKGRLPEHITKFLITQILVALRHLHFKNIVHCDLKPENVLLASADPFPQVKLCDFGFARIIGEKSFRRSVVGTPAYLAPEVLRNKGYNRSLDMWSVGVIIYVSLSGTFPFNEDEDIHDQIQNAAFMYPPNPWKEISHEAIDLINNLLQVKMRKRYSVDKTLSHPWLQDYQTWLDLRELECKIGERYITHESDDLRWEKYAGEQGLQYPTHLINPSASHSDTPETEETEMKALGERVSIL
HSV replic up: increases HSV replication in cells; 0.005% of 220,000 active; AID 1956; HSV replication augmentation in cells, fold increase; maximum fold increase;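 active means peak rise of 1.5-fold or more in the series; tested in PC3 cells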;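 further: first round at 10 µM; read as green reporter fluorescence; hits show the peak of a series up to 25 µM; 1 = signal of infected wells without compound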
INS promoter inh: TRM-6 insulin promoter activity inhibition; TRM-6 cells (human fetal islet line), insulin promoter-eGFP reporter, imaging; reporter expression induced with tamoxifen; inhibition, % at 2 µM; 0.9% of 130,000 active;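 active means inhibition above the mean plus 3 SD, with well images judged a real hit on visual review, cut at about 60% in these data, passing the limit was not always enough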
GALR2 agonist: GALR2 (human) receptor agonism | O43603 | GALR2-expressing cells, agonist activation read-out | activation, %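 (tested at 5 µM)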 | 0.48% of 140,000 active;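 active means above mean plus 3 SD of all compounds, about 5% in these data, not always enough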;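 further: 0% = vehicle buffer wells and 100% = reference agonist at full effect; tested in CHO reporter cells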
INS promoter inh cell count: further read-out of INS promoter inh, marked with its call; normalized cell count, %; measured here: cell count, toxicity; reference of the scale not given here;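 cells exposed to compound for 48 h; stained nuclei by imaging scaled within each plate; lower means fewer cells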
HSV replic up primary fold: second read-out of HSV replic up, no call of its own (marks repeat the call); fold increase; compound at 10 µM; measured here: primary screen fold increase 10 uM; tested in PC3 cells;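 GFP signal in the first replicate; 1 = infected wells without compound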
Starred values were filed as active, the others as inactive; i = inactive; x = not tested or not shown; [ ] = remark or other dose.

Second line of a record – HSV replic up	GALR2 agonist	INS promoter inh cell count	HSV replic up primary fold	RGS16-Gao HTS	PKD1 kinase inh	INS promoter inh
- C=CCNC(=O)/C(=C\C=C\c1ccccc1)NC(=O)c1ccccc1Cl
  i	-0.1	94	0.88	159	0	13
- Cc1nc(SCC(=O)c2ccc(Cl)cc2)c([N+](=O)[O-])[nH]1
  i	-3.2	x	0.84	98	-2	x
- CCN(CC)CC(=O)Nc1ccc2c(c1)Nc1ccccc1CC2
  i	-4.5	x	0.73	102	1	x
- O=S(=O)(c1ccccc1)c1ncc(C(F)(F)F)cc1Cl
  i	x	126	0.63	10*	4	50
- CCOC(=O)C1CCCN(C(=O)c2ccc3c(=O)n(CCOC)c(=S)[nH]c3c2)C1 (configuration not stated)
  i	-0.6	74	0.99	101	-2	-24
- COc1cccc(OCCCCN2CC(C)OC(C)C2)c1 (configuration not stated)
  i	-1.2	110	1	102	-4	-20
- Cc1nn(C(C)C(=O)NNC(=S)Nc2ccc(Cl)cc2)c(C)c1[N+](=O)[O-] (configuration not stated)
  i	-0.1	88	0.93	96	-6	-13
- O=S(=O)(c1cccs1)N1CCN(C/C=C/c2ccccc2)CC1
  i	-2.5	114	0.87	99	3	-29
- C=CCn1c(SCc2ccc(F)cc2)nnc1-c1sc2nc(C)cc(C)c2c1N
  i	x	x	0.98	96	x	x
- NC(=O)C1CCN(c2ccc(S(=O)(=O)N3CCC(Cc4ccccc4)CC3)cn2)CC1
  i	x	x	0.9	105	-4	x
- Clc1ccc(-c2cc(CSc3ccccc3)on2)cc1
  i	-1.1	x	0.95	95	1	x
- CCOC(=O)c1cccc(NC(=O)Cn2c(CC(=O)NC)nc3ccccc32)c1
  i	-0.8	146	0.91	191*[activator]	-5	-67
- Cn1cc(CN2CCCCC2CO)c(-c2ccc(Oc3ccccc3)cc2)n1 (configuration not stated)
  i	x	x	0.85	100	-4	x
- CCOC(=O)c1csc(NC(=O)CSc2nnc(C3CC3)n2C)n1
  i	-2.4	x	0.82	104	-5	x
- CC1Cc2ccccc2N1C(=O)CSc1nnc(CSc2ncccn2)n1C (configuration not stated)
  i	-1.7	91	0.95	109	-5	3

Retrieved one by one from above (4):
Second line of a record – HSV replic up	GALR2 agonist	INS promoter inh cell count	HSV replic up primary fold	RGS16-Gao HTS	PKD1 kinase inh	INS promoter inh
- CC1Cc2ccccc2N1C(=O)CSc1nnc(CSc2ncccn2)n1C (configuration not stated)
  i	-1.7	91	0.95	109	-5	3
- CCOC(=O)c1cccc(NC(=O)Cn2c(CC(=O)NC)nc3ccccc32)c1
  i	-0.8	146	0.91	191*[activator]	-5	-67
- CCOC(=O)C1CCCN(C(=O)c2ccc3c(=O)n(CCOC)c(=S)[nH]c3c2)C1 (configuration not stated)
  i	-0.6	74	0.99	101	-2	-24
- O=S(=O)(c1cccs1)N1CCN(C/C=C/c2ccccc2)CC1
  i	-2.5	114	0.87	99	3	-29

Continuation:
Second line of a record – HSV replic up	GALR2 agonist	INS promoter inh cell count	HSV replic up primary fold	RGS16-Gao HTS	PKD1 kinase inh	INS promoter inh
- CCCCNC(=O)C1CCN(S(=O)(=O)c2cnc[nH]2)CC1
  i	-1.6	x	1	97	-1	x
- Cn1c(=O)c2c(nc(SCC(=O)N3CCc4ccccc43)n2Cc2ccc(F)cc2)n(C)c1=O
  x	-0.2	x	x	x	0	x
- O=C(Cn1cnc2scc(-c3ccc(Br)cc3)c2c1=O)N1CCOCC1
  i	x	x	0.95	100	-4	x
- COC(=O)CSc1nccc(C)n1
  i	x	x	1.1	99	-5	x
- O=c1c(-c2ccnn2-c2cccc(Cl)c2)cnc2n1CCS2
  i	-1.1	99	1	76	0	6
- COc1ccc(NC(=O)CN2CCC3(O)CCCCC3C2c2ccccc2OC)cc1 (configuration not stated)
  i	-1.2	61	0.79	96	-5	-38
- O=C(NCc1ccc2c(c1)OCO2)c1sccc1Br
  i	x	x	1.1	102	x	x
- Nn1c(SCc2ccccc2F)nnc1-c1ccccn1
  i	x	x	1.1	94	x	x
- OC1(C#CCCN2CCCCC2)c2ccccc2-c2ccccc21
  i	x	59	0.98	159	-8	-173
- O=C(NC(=O)c1ccccc1F)Nc1nc(-c2cccs2)cc(C(F)(F)F)n1
  x	2.4	85	x	108	4	17
- CN(c1ccccc1)S(=O)(=O)c1ccc(Cl)c(C(=O)OCC(=O)NC2CCS(=O)(=O)C2)c1 (configuration not stated)
  i	x	104	0.91	97	-3	5
- N#CC1=C2SCN(c3ccc(F)cc3)CN2C(=O)CC1c1cccc(F)c1 (configuration not stated)
  i	-2.5	x	1	68	-2	x
- Cn1c(SCC(=O)N/N=C/C=C\c2ccco2)nc2ccccc21
  i	-2.7	x	1.1	94	-17	x
- CCCCCn1c(=O)[nH]c2cc(C(=O)N3CCN(Cc4ccc5c(c4)OCO5)CC3)ccc2c1=O
  i	-3.1	116	1.2	111	-1	-12
- CCCN1C(=O)c2ccccc2NC1c1ccc(OC)cc1O (configuration not stated)
  i	-2.9	x	0.94	101	-4	x
- O=C(NCc1ccco1)c1ccc(Cl)s1
  i	x	x	1	101	-3	x
- Cc1cc(C(=O)N2CCN(Cc3ccccc3)CC2)on1
  i	-1.0	x	0.91	105	3	x
- CC(C)c1ccc(Nc2c([N+](=O)[O-])c(=O)n(C)c3ccccc23)cc1
  i	x	x	0.9	101	x	x
- CCC(C)[C@H](NC(=O)N1CCC(C)CC1)C(=O)OC (some centres not stated)
  i	x	x	0.97	100	x	x
- c1cc2c(cc1C1=NNC(=NC3CC3)SC1)OCCO2
  i	x	137	0.78	105	5	47
- CC(CCc1ccccc1)NC(=O)CSc1cccc[n+]1[O-] (configuration not stated)
  i	x	105	0.95	98	-4	-8
- O=C(OCc1cn(-c2ccc(Cl)cc2)nn1)c1ccccc1
  x	-1.1	x	x	99	11	x
- CC(C)(C)c1cnnn1-c1ccc(NC(=O)c2ccc(Br)o2)cc1
  i	-0.1	71	1	94	-18	50
- CCNC(=S)N/N=C/c1ccc(OCc2ccc(C(=O)OC)cc2)cc1
  i	-0.4	142	1.1	95	-10	13
- Cc1nc(SC2C=CS(=O)(=O)C2)n[nH]1 (configuration not stated)
  i	0.8	109	1.1	97	-1	21
- Fc1ccccc1CSc1nnc(-c2cnccn2)n1Cc1ccco1
  x	-2.6	81	x	104	-5	21
- COc1ccc(/C=C(\NC(=O)c2ccc(OC)c(OC)c2)C(=O)NCCc2c[nH]c3ccccc23)cc1
  i	-0.4	109	1	102	17	-32
- CCOc1ccc2cc(C#N)c(SCC(=O)NC(C)CC)nc2c1 (configuration not stated)
  i	-0.8	95	0.97	99	-1	6
- CC(C)n1c(C(=O)OCC(=O)NCc2ccc3c(c2)OCO3)cc2occc21
  i	-1.8	x	0.87	99	0	x
- Cc1ccc(-c2cc(N)n3nc(-c4ccc(C)cc4)cc3n2)cc1
  x	-2.0	x	x	100	0	x
- O=C(O)c1ccn(COc2ccc(Br)cc2)n1
  i	x	133	0.96	105	-1	25
- Cc1ccc(CNC(=O)C(=O)NCC2OCCN2S(=O)(=O)c2cccs2)cc1 (configuration not stated)
  i	-1.0	81	0.94	x	-8	5
- Cc1[nH]c(=O)[nH]c(=O)c1S(=O)(=O)N1CCCC(C(=O)N2CCC(Cc3ccccc3)CC2)C1 (configuration not stated)
  i	-0.8	93	0.94	102	-9	-70
- N#Cc1c(-c2ccco2)nc(SCc2ccc(F)cc2)[nH]c1=O
  i	-0.6	106	1.1	108	4	63
- O=C(Nc1ccccc1)NC1(C(=O)NCc2cccs2)CCCCC1
  i	-2.0	89	1.1	104	-3	-21
- O=C(C1=C(O)C(=O)N(Cc2ccco2)C1c1cccs1)c1cccs1 (configuration not stated)
  x	0.7	153	x	111	-1	0
- CCOc1cccc2sc(=NC(=O)c3ccco3)n(CC(=O)OC)c12
  i	x	x	0.91	108	x	x
- Cn1c(SCc2nc3ccccc3n2CCO)nc2ccccc21
  i	-4.6	96	1	105	-20	-12
- CC(=O)N1N=C(c2ccc(Br)cc2)OC12CCCC2
  i	x	x	0.95	106	x	x
- CCOC(=O)N1CCC(NC(=O)c2cc(S(=O)(=O)N3CCOCC3)ccc2F)CC1
  i	-0.3	125	0.83	96	-7	-15
- CCCc1n[nH]c(=O)[nH]1
  i	-0.5	x	1	100	-3	x
- CCOC(=O)c1cn[nH]c1NC(=S)Nc1ccc(Cl)cc1
  i	x	x	0.85	102	x	x
- O=S(=O)(c1ccc(OCC(O)CN2CCN(c3ccccc3)CC2)cc1)N1CCOCC1 (configuration not stated)
  i	-1.7	144	0.91	106	2	-111
- CSCCC1NC2(C(=O)Nc3c(Cl)cccc32)[C@@H]2C(=O)N(C3CCCC3)C(=O)[C@H]12 (some centres not stated)
  i	-2.3	125	0.97	76	-11	-7
- O=C(Nc1ccccc1N1CCN(c2ccccc2)CC1)C12CC3CC(CC(C3)C1)C2
  i	-1.3	102	1.1	106	3	12
- O=C(Cn1cccc1C(=O)c1ccccc1)NCCCN1CCc2ccccc2C1
  i	x	x	0.89	89	13	x
- Cc1cc(NC(=O)c2cc(C(C)C)on2)nn1Cc1ccc(Cl)cc1
  i	-4.7	x	0.97	104	-2	x
- CCOC(=O)c1ccc(NC(=O)Cn2nnc(-c3ccccc3)n2)cc1
  i	0.5	132	0.97	98	0	-21
- COc1cc(CCC(C)=O)ccc1OC(=O)c1c(F)cccc1Cl
  i	x	x	0.78	102	x	x
- Cc1ccc(-c2c(C)n([O-])c3c([n+]2=O)CCCC3)o1
  i	-1.1	182	0.97	104	-7	13
- COc1ccc(C(=O)NNC(=S)NC(=O)c2ccco2)cc1
  i	-2.6	95	0.8	112	-2	-50
- CN(C(=O)CSc1nnc(-c2cccs2)o1)C1CCS(=O)(=O)C1 (configuration not stated)
  i	x	105	0.9	98	1	-33
- O=C(COc1ccccc1)NNC(=O)c1cccs1
  i	-0.7	96	1	64	9	7
- CCOC(=O)C1C(c2cccc([N+](=O)[O-])c2)C2C(=O)NN=C2CC1(C)O (configuration not stated)
  i	x	113	0.92	106	-7	-29
- CS(=O)(=O)N(CC(=O)NC1CC1)c1cccc(F)c1
  i	0.1	77	0.84	72	8	-54
- COc1cc(C(CC(=O)N2CCCC2)c2c(OC)cc(OC)c3c(-c4ccccc4)cc(=O)oc23)cc(OC)c1OC (configuration not stated)
  i	x	x	0.7	105	x	x
- O=c1c2ccccc2[nH]c(=S)n1CCCN1CCN(C2CCCCC2)CC1
  i	-0.8	60	0.9	102	-2	12
- COc1ccc(S(=O)(=O)NC2CC3CCC2C3)cc1Cl (configuration not stated)
  i	-1.9	107	0.86	103	-8	25
- O=C(O)Cn1nnc(-c2cccs2)n1
  x	-2.7	102	x	107	9	-61
- CCN(CC)c1ccc(NC(=S)Nc2ccc(F)cc2)cc1
  i	x	x	0.73	101	-3	x

Next part
Second line of a record – HSV replic up	GALR2 agonist	INS promoter inh cell count	HSV replic up primary fold	RGS16-Gao HTS	PKD1 kinase inh	INS promoter inh
- COc1ccccc1CNC(=O)Cc1ccc(C)cc1
  i	x	120	0.99	100	-8	0
- Cc1cc(NC(=O)CSc2nc(-c3ccccc3Cl)nc3c2c(=O)n(C)c(=O)n3C)no1
  i	x	x	0.96	99	-2	x
- Cc1ccc(N=Nc2c(N)[nH]n3c(=O)cc(C)nc23)cc1
  i	0.7	130	0.85	109	-12	17
- O=C(Nc1cc(S(=O)(=O)Nc2ccc(Cl)cc2)ccc1N1CCCCC1)c1ccc(F)cc1Cl
  i	0.8	101	0.76	95	-3	-33
- CCOC(=O)N1CCN(Cc2nc(-c3ccc(Cl)cc3)no2)CC1
  i	-1.9	145	0.93	94	-5	-31
- NNC(=O)CCN1CCCCC1
  i	x	129	1	101	-9	13
- COc1ccc(C(C(=O)NC2CCCCC2)N(C(=O)c2cccs2)c2ccc3c(c2)OCO3)cc1 (configuration not stated)
  i	-3.0	129	1	112	-12	23
- O=C1C=CC(=O)N1c1ccc(I)cc1Cl
  i	x	x	0.91	103	x	x
- Fc1ccc(OCc2nc(-c3cccs3)no2)cc1
  i	x	x	0.89	101	5	x
- CCN(CC)CCNC(=O)C(C)c1nn(C)c(=O)c2ccccc12 (configuration not stated)
  i	-2.0	89	0.86	99	-1	0
- N=c1c(C(=O)NCc2ccco2)cc2c(=O)n3ccccc3nc2n1CCc1ccccc1
  i	-1.4	87	1.1	93	-7	21
- CCOC(=O)N1CCN(Cc2cn3ccccc3n2)CC1
  i	0.1	92	0.94	103	-10	-13
- CCn1c(=O)n(CC)c2cc(S(=O)(=O)N3CCC(c4ccccc4)CC3)ccc21
  i	-4.6	77	0.71	102	5	26
- COc1ccc(C(C)(C)C)cc1NC(=O)COC(=O)c1cnc(C)cn1
  i	-2.6	135	0.95	93	11	18
- CN(c1ccccn1)c1ncnc2[nH]ncc12
  i	x	x	1.3	102	x	x
